VDR inh – inhibitors of human vitamin D receptor | P11473 | VDR-SRC2-3 peptide fluorescence polarization, 2 h | Potency, µM, for inactives: max response, negative = inhibition, hits mostly inhibitors | 0.93% of 400,000 active; active = well fitted inhibition curve with a large enough effect; inconclusive = small, poorly fitted or top-dose-only effect, or another doubt; inactive = no such curve, though single readings can be large or run the other way; also: series mostly up to about 120 µM
Target sequence (P11473 whole entry, looked up): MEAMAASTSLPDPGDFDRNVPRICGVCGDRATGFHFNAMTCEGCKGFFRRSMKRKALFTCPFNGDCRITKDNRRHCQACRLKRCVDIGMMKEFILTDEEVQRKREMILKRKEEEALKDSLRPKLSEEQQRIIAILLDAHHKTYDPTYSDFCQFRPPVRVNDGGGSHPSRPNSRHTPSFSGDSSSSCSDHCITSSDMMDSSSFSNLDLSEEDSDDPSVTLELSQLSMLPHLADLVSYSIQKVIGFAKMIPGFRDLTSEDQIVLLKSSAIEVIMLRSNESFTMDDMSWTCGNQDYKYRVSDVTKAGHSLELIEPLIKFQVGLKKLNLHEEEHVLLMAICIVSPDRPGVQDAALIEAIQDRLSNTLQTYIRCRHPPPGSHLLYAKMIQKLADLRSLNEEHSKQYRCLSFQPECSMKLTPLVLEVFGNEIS
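Signal is fluorescence polarization, reporting how far test compounds block the interaction of VDR with the SRC2-3 coregulator peptide after a 2 h room-temperature incubation.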
* = called active by the depositor; ? = inconclusive; & = joins results of further samples. % is scaled to controls: 0 for no effect and ±100 for the full control effect; potency is read from the fitted curve at half-maximal effect. An excerpt; rates above refer to the full screens.

The first four records as a preview:
VDR inh	SMILES
-18%	O=C(Nc1ccccc1N1CCOCC1)c1ccc2ccccc2c1
15%	COc1ccc(NC(=O)C2CCCN(c3c4c(nc5ncnn35)CCC4)C2)cc1 (centres undefined)
-12%	O=C(Cc1ccc(NC(=O)C2CCN(C(=O)C3CCCC3)CC2)cc1)Nc1ccc(C(=O)N2CCOCC2)cc1
-5%&-12%	COc1cc2oc(=O)cc(-c3ccc(-c4ccc(C#N)cc4)cc3)c2c(OC)c1OC

The listing, from the start:
VDR inh	SMILES
-18%	O=C(Nc1ccccc1N1CCOCC1)c1ccc2ccccc2c1
15%	COc1ccc(NC(=O)C2CCCN(c3c4c(nc5ncnn35)CCC4)C2)cc1 (centres undefined)
-12%	O=C(Cc1ccc(NC(=O)C2CCN(C(=O)C3CCCC3)CC2)cc1)Nc1ccc(C(=O)N2CCOCC2)cc1
-5%&-12%	COc1cc2oc(=O)cc(-c3ccc(-c4ccc(C#N)cc4)cc3)c2c(OC)c1OC
?	COc1ccc(/C=C2/SC(=O)N(CC(O)Cn3c4ccccc4c4ccccc43)C2=O)cc1 (centres undefined)
9%	CC1CCCCN1S(=O)(=O)c1ccc(NC(=O)c2cccc(-n3cnnn3)c2)cc1 (centres undefined)
6%	CCOc1ccccc1NC(=O)C(CC(C)C)NC(=O)C1CCCCC1 (centres undefined)
4%	Cc1c(Br)c(C(F)(F)F)nn1CC(=O)NCc1ccccc1
0%	CCC1CCc2c(sc(NC(=O)c3cccnc3)c2C(N)=O)C1 (centres undefined)
0%	CC(=O)NCCC(=O)Nc1cc(S(=O)(=O)N2CCCCC2)ccc1Oc1ccccc1
3%	CCC1C(=O)N=C(SCC(=O)NC2CCCCC2)NC1=O (centres undefined)
?	O=C(C[n+]1ccccc1)N/N=C/c1ccc(O)cc1
-14%	Cc1cc(=O)n2nc(N3CCCC(C(=O)NCc4ccccc4Br)C3)sc2n1 (centres undefined)
-21%	O=C(c1ccc(Br)s1)N1CCCC1
-14%	CCCc1cc(=O)[nH]c(SCC(=O)Nc2ccc(OCc3ccccc3)cc2)n1

Structural class, the entries above with four or more nitrogen atoms
VDR inh	SMILES
15%	COc1ccc(NC(=O)C2CCCN(c3c4c(nc5ncnn35)CCC4)C2)cc1 (centres undefined)
-12%	O=C(Cc1ccc(NC(=O)C2CCN(C(=O)C3CCCC3)CC2)cc1)Nc1ccc(C(=O)N2CCOCC2)cc1
9%	CC1CCCCN1S(=O)(=O)c1ccc(NC(=O)c2cccc(-n3cnnn3)c2)cc1 (centres undefined)
-14%	Cc1cc(=O)n2nc(N3CCCC(C(=O)NCc4ccccc4Br)C3)sc2n1 (centres undefined)

Other records follow:
VDR inh	SMILES
3%	Cc1cc2c(N3CCCCC3C)ncnc2s1 (centres undefined)
-7%	CCC1(C(=O)c2ccc(Cl)cc2)C2c3ccccc3OC(=O)C21C(=O)Nc1ccccc1 (centres undefined)
-5%	COc1ccccc1C(c1nnnn1C(C)C)N1CCN(C(=O)c2ccco2)CC1 (centres undefined)
-5%	CCOC(=O)c1c(NC(=O)C(C)Oc2ccccc2F)sc(C(C)=O)c1C (centres undefined)
4%	Cc1ccc(N2CC(C(=O)OCC(=O)Nc3ccc(Cl)cc3)CC2=O)cc1 (centres undefined)
23%	CC(=O)COc1ccc2oc(=O)cc(-c3cc4ccccc4o3)c2c1
1%	O=C(CN1C(=O)NC2(CCCCC2)C1=O)Nc1ccccc1N1CCCC1
3%	O=C(NC1CCCC1)C1CCN(c2nccs2)CC1
-20%	Cc1ccc(Cn2c(O)c(N=O)c3ccccc32)cc1
5%	COc1ccc(Cl)cc1C(=O)NCC(=O)OCc1ccccc1
13%	CCCCn1c(=O)c(CCC(=O)OCC(=O)NCc2ccc(OC)c(OC)c2)nc2ccccc21
-5%	Cc1ccc(NC(=O)c2ncn(CC(=O)NCc3ccc4c(c3)OCO4)n2)cc1C
0%	Cc1[nH]c2ccccc2c1C(=O)COc1ccccc1F
12%	CCOC(=O)c1cc(NC(=O)NCc2ccco2)c(C)nc1C
2%	CC1CCN(C(=O)CN(c2ccc(Oc3ccccc3)cc2)S(C)(=O)=O)CC1

The listing continues:
VDR inh	SMILES
13%	Cc1cc(NC(=O)CN2CCCCC2)no1
6%	COc1cc(C(C#N)N2CCOCC2)ccc1O (centres undefined)
-1%	CCOC(=O)Cc1csc(NC(=O)/C=C/c2ccc(Cl)cc2)n1
9%	COc1cccc(C2C(C#N)=C(N)N(N(C)C)C3=C2C(=O)CC(C)(C)C3)c1OC (centres undefined)
-29%	Cc1cccc(C)c1OCc1cc(C(=O)N2CCN(c3ccccc3)CC2C)no1 (centres undefined)
-13%	CC1(C)CC(=O)C=C(Nc2cccc(Cl)c2Cl)C1
-3%	O=C(NC1CC2CCC1C2)c1ccc(CN2CCOCC2)cc1 (centres undefined)
-10%	CCOc1ccc(Nc2n[nH]c(=S)s2)cc1
-5%	Nc1nc(Nc2ccccc2)nc(N2CCOCC2)c1[N+](=O)[O-]
-10%	Cc1ccc(S(=O)(=O)N(C)c2ccc3c(ncn3C)c2[N+](=O)[O-])cc1
1%	COc1ccc(OCc2cc(C(=O)NCc3nc(C)cs3)no2)c(Cl)c1
-13%	COc1ccc(-c2cc(C)nc3nc(N)nn23)cc1
2%	CCN(CC)CCNC(=O)C1c2cc(OC)c(OC)cc2C(=O)N2CCc3ccccc3C12 (centres undefined)
-3%	COc1ccc2cc3cc(C(=O)Nc4ccccc4N4CCN(C)CC4)oc3nc2c1
-1%	CC(Sc1nnc(C2CC2)n1C)C(=O)Nc1ccc2c(c1)CCC2 (centres undefined)

(listing goes on)
VDR inh	SMILES
-14%	COC(=O)c1cc(NS(=O)(=O)c2ccc(NCc3cccnc3)c(N)c2)cc(C(=O)OC)c1
-1%	Cc1cccc(OCC(=O)Nc2ccc3c(c2)OCO3)c1C
4%	CN(Cc1cccs1)C(=O)CNC(=O)c1ccco1
19%	COc1cc2c(cc1N/C=C(\C#N)c1nc(-c3ccc(F)cc3)cs1)oc1ccccc12
1%	CC(=C/c1ccco1)/C=N/N1CCN(c2ccccc2)CC1
-9%	O=C(NC1CCCCC1)c1ccc(-n2cncn2)c([N+](=O)[O-])c1
3%	NC(=O)COC(=O)c1cc(Cl)cc(Cl)c1N
3%	CC1=C(C(=O)OC(C)C)C(c2ccc(Br)s2)NC(=O)N1 (centres undefined)
3%	C=C(C)CNC(=S)NNC(=O)c1ccco1
-18%	COc1ccccc1-c1nnc(SCC(=O)Nc2c(Cl)cccc2Cl)o1
-12%	COc1cccc(C(c2nnnn2CCc2ccccc2)N2CCN(c3ccccc3)CC2)c1OC (centres undefined)
-13%	O=C(NCCCn1ccnc1)/C(=C\c1cccs1)NC(=O)c1cccs1
5%	Cc1cccc(Nc2nc(N)nc(CN3CCC(C(N)=O)CC3)n2)c1C
-16%	COc1ccc(C(=O)CN2CCN(c3ccc(F)cc3)CC2)cc1
22%	COc1ccc(CNC(=O)C(C)n2nc(C)c3sc4ccccc4c3c2=O)cc1OC (centres undefined)

Next part.
VDR inh	SMILES
-13%	N#CCCN(CCC#N)S(=O)(=O)c1ccc(C(=O)Nc2nnc(C3=COCCO3)o2)cc1
-3%	c1ccc(COn2nnc3ccccc32)c(COn2nnc3ccccc32)c1
2%	O=C(NCC(=O)N(c1cccc(F)c1)C(C(=O)NC1CCCC1)c1ccncc1)c1ccco1 (centres undefined)
-14%	c1ccc2[nH]c(CSc3nccs3)nc2c1
-14%	COc1ccc(Nc2cc(C(=O)NCCCN3CCN(C)CC3)c3ccccc3n2)cc1
-8%	COC(=O)c1oc2ccccc2c1NC(=O)CN1CCCC1
26%	N#CC1(c2ccccc2)CCCN1C(=O)c1ccc(Br)cc1 (centres undefined)
19%	CCOc1ccc(C(=O)/C=C/c2cn(CC(O)CN3CCc4ccccc43)c3ccccc23)cc1 (centres undefined)
-11%	CCOC(=O)c1sc2nc(C)nc(NCc3ccc(Cl)cc3)c2c1C
-11%	Cc1oc(-c2ccc(Cl)cc2)nc1CS(=O)CC(=O)NC1CC1 (centres undefined)
-1%	CC(C)(C)NC(=O)C(=O)NNC(=O)c1cccc(F)c1
8%	Cc1cnc(NC(=O)CSc2nnc(-c3ccccc3)o2)s1
?	COc1ccc(Nc2nc(-c3ccccc3F)nc3ccccc23)cc1OC
-1%	Cc1ccc(S(=O)(=O)N2Cc3ccccc3CC2C(=O)Nn2cnnc2)cc1 (centres undefined)
-5%	O=C1C=C(Nc2ccc(Cl)cc2)CC(c2ccco2)C1 (centres undefined)

Compounds from the list above that contain two or more sulfur atoms, in the order listed:
VDR inh	SMILES
-10%	CCOc1ccc(Nc2n[nH]c(=S)s2)cc1
-13%	O=C(NCCCn1ccnc1)/C(=C\c1cccs1)NC(=O)c1cccs1
-14%	c1ccc2[nH]c(CSc3nccs3)nc2c1
8%	Cc1cnc(NC(=O)CSc2nnc(-c3ccccc3)o2)s1

(more compounds)
VDR inh	SMILES
-2%	COc1ccc(C=O)cc1CSc1nnc(COc2cccc3cccnc23)o1
-9%	COc1ccc(CN2CC[C@H]3C=CC[C@@H](C(=O)N4CCOCC4)[C@H]3C2=O)cc1OC
-12%	CC(C)c1ccccc1NC(=O)CSc1nnc(COc2ccccc2)o1
-1%	O=C(NCC1OCCc2ccccc21)c1ccc(NC(=O)c2ccc(Cl)cc2Cl)cc1 (centres undefined)
-8%	O=C(Nc1ccnn1C1CCN(Cc2ccc(F)cc2)CC1)C1CC1
5%	Cc1cccc(CNc2ccnc(-c3ccc(C(=O)N(C)C)cc3)n2)c1
-8%	COc1ccc2nc(CNC(=O)C3CCC(=O)N(CCc4ccccc4)C3)[nH]c2c1 (centres undefined)
-5%	Cc1cc(Nc2ccccc2)nc(N2CCOCC2)n1
1%	Cc1ccc(CSc2nc3c(c(=O)[nH]2)C(c2cccc(F)c2F)CC(=O)N3)cc1 (centres undefined)
10%	CCOP(=O)(OCC)C(NC(=O)/C=C/c1ccc(OC)cc1)c1ccccc1 (centres undefined)
6%	O=[N+]([O-])c1cccc(/C=C/c2ccncc2)c1
-3%	COc1ccc(S(=O)(=O)Nc2cccc(F)c2)cc1C
1%	CN1CCN(c2cc(-c3cc(O)c4ncccc4c3)ccn2)CC1
-4%	CCN(C(=O)COC(=O)c1cccc(S(=O)(=O)N(CC)CC)c1)C1CCS(=O)(=O)C1 (centres undefined)
10%	O=C(COC(=O)c1cc(-c2ccccn2)nc2ccccc12)Nc1ncc(C(F)(F)F)cc1Cl

(more compounds)
VDR inh	SMILES
-15%	CCOC(=O)c1c(C)c(-c2ccccc2)n(CC(=O)Nc2cc(C)cc(C)c2)c1C
-6%	COc1ccccc1C(=O)NCCC(=O)N(C)CC(=O)Nc1ccc(C)cc1
0%	CC(C)COc1ccc(/C(=N/O)c2ccccc2)cc1
-2%	CC(=O)Nc1ccc(S(=O)(=O)N2CCC(C(=O)Nc3nccs3)CC2)cc1
1%	Cc1cc(C(=O)COC(=O)C2=NNC(=O)CC2)c(C)n1-c1cccc(C(F)(F)F)c1
-14%	Cc1cc(NC(=O)Cn2nnc(-c3ccccc3N)n2)no1
-8%	COc1ccc2c(c1)[nH]c1c(=O)n(CCN3CCOCC3)cnc12
8%	N#C/C(=C(/O)c1ccco1)c1nc2ccccc2[nH]1
2%	CCN(C(=O)/C=C/c1cc(OC)c(OC)c(OC)c1)C1CCCCC1
-11%	C=CCn1c(-c2csc(-c3ccccc3)n2)n[nH]c1=S
-7%	Cc1cccc(C)c1OCc1cc(C(=O)N(C)Cc2nc3ccccc3[nH]2)no1
11%	Cn1c(C(=O)NCc2ccccn2)cc2c(=O)n3ccccc3nc21
-13%	Cc1ccc(C=Nc2ccccc2C(=O)Nc2ccccc2)cc1
-10%	COc1ccc(/C=C(\C#N)C(=O)OCC(=O)NC(C)c2ccccc2)cc1 (centres undefined)
7%	COc1ccc(CCNC(=O)Cn2c(-c3cccs3)cc3cc(F)ccc32)cc1OC

Later entries:
VDR inh	SMILES
3%	CCN1CCN(C(=O)c2cnn(-c3ccc(F)cc3)c2-n2cccc2)CC1
-9%	COC(=O)c1sccc1NC(=O)CNC(=O)c1ccccc1
-8%	O=C(/C=C/c1ccc(Cl)cc1)Nc1ccccc1N1CCOCC1
8%	Cc1noc(COc2ccccc2OCC(N)=O)n1
10%	Cc1cc(C)n2nc(C(=O)NCc3cccc(C(F)(F)F)c3)nc2n1
-5%	Cc1ccc(/C=C/c2nc3ccccc3c(=O)[nH]2)cc1
-3%	COc1ccccc1NC(=O)CS(=O)(=O)c1cccc2nsnc12
13%	Clc1ccc(Oc2nc3ccccc3n3cccc23)cc1
8%	COc1ccc(-c2cc(C(=O)OCC(=O)NC3CC3)c3ccccc3n2)cc1OC
9%	COCCN1C(=O)c2cc(C(=O)Nc3ccc(OC)c(OC)c3)ccc2C1Nc1ccc(OC)c(OC)c1 (centres undefined)
-5%	COc1ccc(-c2ccc(/C=C(\NC(=O)c3ccccc3)C(=O)N3CCOCC3)o2)cc1
2%	O=C(NCc1ccc(Cl)cc1)c1cnc2sc(N3CCCC3)nn2c1=O
7%	CCn1c(NC(C)=O)nc2ccccc21
4%	O=C(NC1CCCN(Cc2ccc(Cl)cc2)C1)c1ccccc1-c1ncc[nH]1 (centres undefined)
-18%	Cc1c(NC(=O)CSc2nc(N)cc(N)n2)c(=O)n(-c2ccccc2)n1C
-5%	Cc1cc(/C=N\NC(=O)COc2cccc3cccnc23)c(C)n1-c1ccccc1
-4%	CC(NC(=O)c1ccccc1)c1nnc(SCc2nc3ccccc3c(=O)[nH]2)n1C (centres undefined)

Screens from PubChem BioAssay.
